# GIV Gai3 FP – inhibitors of GIV GBA-motif binding to rat Galpha-i3. P08753. Galpha-i3/FITC-GIV peptide fluorescence polarization, 90 min; stronger effect = lower value; scaled: aluminum fluoride 0%, vehicle 100%. percent of control (FP), % (concentration not given with the values). 210,000 compounds, 0.42% hits. AID 1224905;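 active = replicate mean at 85% of control or lower, very high polarization wells dropped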;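 also: wells of about 15 µL received 100 nL stock; the first replicate is given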
# Target sequence (P08753 whole entry, looked up): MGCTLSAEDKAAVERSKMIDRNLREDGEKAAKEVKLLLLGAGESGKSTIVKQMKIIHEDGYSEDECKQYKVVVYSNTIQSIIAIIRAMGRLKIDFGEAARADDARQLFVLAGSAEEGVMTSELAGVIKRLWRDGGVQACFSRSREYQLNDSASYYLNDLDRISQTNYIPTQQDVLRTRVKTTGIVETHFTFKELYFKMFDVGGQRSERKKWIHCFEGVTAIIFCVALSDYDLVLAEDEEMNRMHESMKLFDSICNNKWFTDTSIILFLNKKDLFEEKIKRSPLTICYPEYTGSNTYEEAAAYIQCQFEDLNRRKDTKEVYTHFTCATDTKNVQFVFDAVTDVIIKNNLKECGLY
# Numbers without * were called inactive. An excerpt; the hit share may differ from the screen's.
Structure,GIV Gai3 FP
CC1(C)CC(=O)C2=C(C1)Nc1ccc3ccccc3c1C2c1ccccc1 (configuration not stated),116
CC(C)n1nc2c(S(=O)(=O)N3CCN(c4ccc(F)cc4)CC3)cccn2c1=O,105
CC(=O)Oc1cc(/C=C2\Oc3ccc4c(C)cc(=O)oc4c3C2=O)ccc1[N+](=O)[O-],104
CCSCCOC(=O)C1=C(C)NC2=C(C(=O)CC(c3cccs3)C2)C1c1ccc(OC)c(OC)c1 (configuration not stated),106
Cc1noc(C)c1C1CCCN1Cc1ccc(OCc2ccccc2)cc1 (configuration not stated),100
O=C(NCCSc1ccccc1)c1nc(-n2cnnc2)ccc1Br,98
CCCCOc1ccc(C2C(N3C(=O)c4ccccc4C3=O)C(=O)N2c2ccc(OC)cc2OC)cc1 (configuration not stated),113
O=C(Nc1nc2ccccc2n1CCOc1ccccc1)c1ccc([N+](=O)[O-])cc1,114
Cc1cc(C2CCCN2Cc2ccc(C)s2)no1 (configuration not stated),106
COc1ccc(CCNC(=O)CCn2c(SCC(=O)NCc3ccco3)nc3ccccc3c2=O)cc1OC,112
CCCSc1nnc2c3ccccc3n(CCC)c2n1,102
Cc1nc(-c2ccc(C)c(-n3cc(C(=O)NC4CCCCC4)c(C)n3)c2)no1,102
O=C(CCc1c[nH]c2ccccc12)Nn1c(SCc2cc(=O)n3cc(Cl)ccc3n2)nc2ccccc2c1=O,115
COc1ccc(-c2nnc(SCCN3CCCCC3)nc2-c2ccc(OC)cc2)cc1,109
Cc1c(S(=O)(=O)NCCc2nc(-c3ccc(F)cc3)n[nH]2)cnn1C(F)F,106
Cc1cccc2c1N(C(=O)c1ccc(-c3ccccc3)cc1)C(C)(C)c1ssc(=S)c1-2,104
CC(C)c1cc(C2CCCN2C(=O)c2cc(C3CCCCC3)no2)on1 (configuration not stated),105
CCOC(=O)C1=C(c2ccccc2)OC(N)=C(C#N)C1c1ccc(Cl)c(Cl)c1 (configuration not stated),107
CCOc1cccc2c1OC(c1cccc(OC)c1OC)N1N=C(c3ccc(C)o3)CC21 (configuration not stated),152
Cc1ccc(-c2nc3sc(CCNC(=O)c4ccccc4)c(C)n3n2)cc1,110
COc1cc(C2Nc3c(C)cc(C)cc3[C@H]3OCC[C@@H]23)cc(Cl)c1OC (some centres not stated),98
COC(=O)c1ccc2c(=O)n(Cc3ccc(C)cc3)c(N3CCN(c4cccc(C)c4)CC3)nc2c1,103
COc1cccc(-n2nnc3c(N4CCN(C(=O)CCC5CCCC5)CC4)ncnc32)c1,100
O=S(=O)(c1cccnc1)N1CCc2[nH]ncc2C1,101
COC(=O)C1=NNC2C(=O)N(c3c(C)cc(C)cc3C)C(=O)C12 (configuration not stated),109
CC1(C)CC2(CCCN(Cc3nc4c(c(=O)[nH]3)C3(CCCC3)Cc3ccccc3-4)C2)CCO1 (configuration not stated),103
Cc1ccc(NC2=C(CC(=O)O)C(c3ccccc3)N(c3ccc(C)cc3)C2=O)cc1 (configuration not stated),108
CCN(CC)S(=O)(=O)c1ccc(C(=O)Nc2c3c(nn2-c2ccc(F)cc2)CS(=O)(=O)C3)cc1,106
CCOC(=O)C1Cn2c(nc3c(c2=O)C2(CCCCC2)Cc2ccccc2-3)S1 (configuration not stated),106
Clc1nc(NCc2cccnc2)nc(Nc2ccccc2)n1,110
O=C(Cc1cn2cc(Br)ccc2n1)N1CCSCC1,109
Cc1cccc(C)c1-n1c(N)c(C(=O)NCCc2ccccc2)sc1=S,104
COc1ccc(C(=O)Nc2cc(C(=O)Nc3ccc(OC)c(Cl)c3)ccc2N2CC3CC(C2)c2cccc(=O)n2C3)cc1 (configuration not stated),105
COCCNS(=O)(=O)c1cc(-c2nc(CC(C)C)cs2)cs1,97
CCCC1C(C#N)=C(SCc2cccc([N+](=O)[O-])c2)NC(C)=C1C(C)=O (configuration not stated),99
CCOC(=O)c1sc(NC(=O)C(C)Sc2nnc(CNC(=O)c3cccc(OC)c3)n2C)c(C(=O)OCC)c1C (configuration not stated),107
COc1ccc2c(c1)NC1(CCN(C(=O)Nc3ccc(OC)cc3OC)CC1)c1cccn1-2,108
CCCc1[nH]n(-c2ccc(F)cc2)c(=O)c1C=NCCCN(CC)CC,106
C=CCOc1c(Br)cc(Br)cc1C=Nc1c(C)n(C)n(-c2ccccc2)c1=O,119
Cc1ccc(N=C(NOCc2ccc(Cl)cc2Cl)c2nonc2N)cc1,116
COc1ccc(/C=C2\C=C(c3ccccc3)N(c3ccc(C(C)=O)cc3)C2=O)cc1Br,110
Cn1c(=O)c2nc(SCCN3CCCCC3)n(C)c2n(C)c1=O,96
O=C(c1cn(-c2cc(N3CCOCC3)ncn2)cn1)N1CCSCC1,105
O=S(=O)(Cc1nc(-c2ccc3c(c2)OCO3)no1)c1ccc(F)cc1,105
COc1ccc(CSc2nccc3c2ccn3CC(=O)N2CCN(c3ccccn3)CC2)cc1,106
N#CC1=C(N)C(C#N)(C#N)[C@@H](c2ccc(F)cc2)[C@@H]2CCCC=C12,115
CCC(=O)Nc1cccc(-c2noc(C3CCCN(C(=O)c4ccc(OC)cc4)C3)n2)c1 (configuration not stated),106
CCC1=NN(C(=O)c2ccccc2O)C(O)(c2ccc(Br)cc2)C1 (configuration not stated),114
CCOC(=O)c1cccc(N2C(=O)C3C4c5ccccc5C(C(C)=O)(c5ccccc54)C3C2=O)c1 (configuration not stated),105
CCn1cnc2c(-c3ccc(C)cc3)csc2c1=O,105
CCN1C2c3ccccc3N(S(=O)(=O)c3ccc(C)cc3)C1c1ccccc1N2S(=O)(=O)c1ccc(C)cc1,116
Cc1nc2oc3c(-c4ccc(Br)cc4)ncnc3c2c2c1COC(C)(C)C2,110
CC1(C)CC(=O)C2=C(C1)c1c(ccc3ccccc13)NC2c1cn[nH]c1-c1ccccc1 (configuration not stated),104
Cn1c(=O)c2nc(S(=O)(=O)CCC(=O)N3CCCC3)n(C)c2n(C)c1=O,100
Cc1cc(C(=O)N2CCC(Nc3ncnc4c3CCC4)C2)nn1C (configuration not stated),102
N#CC1(C#N)[C@H](c2ccccc2)[C@@H](C(=O)c2ccccc2)N2c3ccc4ccccc4c3C=C[C@@H]21,113
Cc1cccc(NC(=O)CSc2nc(-c3sc(-c4ccc(Cl)cc4)nc3C)cc(=O)[nH]2)c1,101
Cc1ccc(CSc2nc3c(c(=O)[nH]2)CN(Cc2ccc(F)cc2)CC3)cc1,97
COc1ccc(C(NC(=O)c2cccc(OC)c2)c2cc(Cl)c3cccnc3c2O)cc1 (configuration not stated),107
CCCN(CCC)S(=O)(=O)c1ccc2c(c1)Cc1cc(S(=O)(=O)N(CCC)CCC)ccc1-2,111

# Random excerpt: 5 records from the list.
Structure,GIV Gai3 FP
N#CC1(C#N)[C@H](c2ccccc2)[C@@H](C(=O)c2ccccc2)N2c3ccc4ccccc4c3C=C[C@@H]21,113
COc1ccc(C(NC(=O)c2cccc(OC)c2)c2cc(Cl)c3cccnc3c2O)cc1 (configuration not stated),107
Cc1nc(-c2ccc(C)c(-n3cc(C(=O)NC4CCCCC4)c(C)n3)c2)no1,102
N#CC1=C(N)C(C#N)(C#N)[C@@H](c2ccc(F)cc2)[C@@H]2CCCC=C12,115
CCCc1[nH]n(-c2ccc(F)cc2)c(=O)c1C=NCCCN(CC)CC,106

# Continuation.
Structure,GIV Gai3 FP
CCOC(=O)c1[nH]c(C)c(CCC(=O)N2CCCC(C(=O)NCCCOC)C2)c1C (configuration not stated),105
CNC(=O)CSc1nc2c(cnn2-c2ccccc2)c(=O)[nH]1,102
COc1cc(C2Nc3ccc(F)cc3[C@H]3OCC[C@@H]23)cc(Br)c1OC (some centres not stated),98
CC(C)n1cnc2c(-c3ccccc3)csc2c1=O,109
O=C(NCC1CCCO1)N1CCN(C(=O)c2nsc3ccccc23)CC1 (configuration not stated),100
CC(=O)C12c3ccccc3C(c3ccccc31)C1C(=O)N(c3ccc(F)cc3)C(=O)C12 (configuration not stated),105
Cc1cc(N)nn1C(=O)CSc1nc(Nc2ccc(F)cc2)c2ccccc2n1,112
CCCCN1/C(=C2/SC(=S)N(C)C2=O)Sc2ccccc21,116
CCOc1ccc(N2C(=O)C3C(c4ccccc4)C=CC(c4ccccc4)C3C2=O)cc1 (configuration not stated),107
O=S(=O)(c1cccn2c(SCc3ccncc3)nnc12)N1CCN(c2ccc(F)cc2)CC1,100
COc1ccc(NC(=O)C2CCCN(S(=O)(=O)Cc3ccccc3C)C2)cc1OC (configuration not stated),99
O=C(c1ccc(F)cc1)N1N=C(c2cccs2)CC1c1ccccc1 (configuration not stated),106
COc1ccc(CNC(=O)c2ccc(Cn3c(=S)[nH]c4ccc(Br)cc4c3=O)cc2)cc1,115
Cc1ccc(-c2c[n+]3c(n2-c2ccc(C)cc2)CCCCC3)cc1,106
C#CCOc1ccc(C2CC(=O)Nc3c2cnn3-c2nc3ccccc3s2)cc1OC (configuration not stated),106
Cc1ccc(C)c(CSc2nnc3c(S(=O)(=O)N4CCCCC4)cccn23)c1,101
Cn1nc(COCc2ccccc2)c2c1CCN(S(=O)(=O)c1ccc(C(C)(C)C)cc1)C2,103
CCOC(=O)c1ccc(N=C2SC(C(=O)NC)CC(=O)N2CCC23CC4CC(CC(C4)C2)C3)cc1 (configuration not stated),109
COc1ccc(NS(=O)(=O)c2cc3[nH]c(=O)[nH]c3cc2Cl)c(OC)c1,109
Cc1ccc(N2C(=O)C3C4c5ccccc5C(C=O)(c5ccccc54)C3C2=O)c(Br)c1 (configuration not stated),123
O=S(=O)(Nc1ccc(Cn2cncn2)cc1)c1ccc(Br)cc1,105
COc1ccc(Cl)cc1N1C(=O)CSC1c1ccc(Br)cc1 (configuration not stated),109
Cc1cc(-c2ccccc2)nc(SCc2cn3c(C)cc(C)nc3n2)n1,108
CN(CC1CCCO1)S(=O)(=O)c1ccc(C(=O)Nc2nc(-c3ccncc3)cs2)cc1 (configuration not stated),98
COC(=O)Cc1nc(NCc2ccccc2)c2c3c(sc2n1)CCCC3,105
O=C1CCCC2=C1C(c1ccc(O)cc1)Nc1ccc3ccccc3c12 (configuration not stated),110
Cc1nc2ccccc2c(=O)n1-c1ccc(NC(=O)c2ccc(F)cc2Cl)cc1,110
C=CCNc1nc(Nc2cccc(F)c2)c2cnn(-c3ccccc3)c2n1,98
COc1cc(C)nc(NC(=O)NS(=O)(=O)c2c(OC)cc(C)nc2Cl)n1,99
COC(=O)C(CO)NC(=O)C(Cc1c[nH]c2ccccc12)NC(=O)OCc1ccccc1 (configuration not stated),118

# The final 6 records of the part before come first, to join the parts.
Structure,GIV Gai3 FP
COC(=O)Cc1nc(NCc2ccccc2)c2c3c(sc2n1)CCCC3,105
O=C1CCCC2=C1C(c1ccc(O)cc1)Nc1ccc3ccccc3c12 (configuration not stated),110
Cc1nc2ccccc2c(=O)n1-c1ccc(NC(=O)c2ccc(F)cc2Cl)cc1,110
C=CCNc1nc(Nc2cccc(F)c2)c2cnn(-c3ccccc3)c2n1,98
COc1cc(C)nc(NC(=O)NS(=O)(=O)c2c(OC)cc(C)nc2Cl)n1,99
COC(=O)C(CO)NC(=O)C(Cc1c[nH]c2ccccc12)NC(=O)OCc1ccccc1 (configuration not stated),118
Cc1ccc(S(=O)(=O)Nc2ccccc2-c2ccc3cc(C)ccc3n2)cc1,100
COc1cccc(C2C3=C(CC(C)(C)CC3=O)Nc3ccc4ccccc4c32)c1 (configuration not stated),110
O=C(NC1CCCC1)C1CCCN(c2ccc3cc(S(=O)(=O)N4CCCC4)ccc3n2)C1 (configuration not stated),105
O=S(=O)(c1cc(-c2nc(-c3ccc(Cl)cc3)no2)cs1)N1CCc2ccccc21,101
Cc1cc(C)cc(-n2ncc3c(N(CCO)c4ccccc4)ncnc32)c1,96
OC(CN1CCN(c2ccccc2)CC1)Cn1c2ccccc2c2ccccc21 (configuration not stated),102
Cc1ccc(Nc2ncnc3sc(C(=O)O)c(C)c23)cc1F,131
Cc1cc(N)n(C)n1,101
Cc1cc(C)c2c(n1)sc1c(=O)n(-c3cccc(C(=O)Nc4ccc(C(C)C)cc4)c3)cnc12,104
CCN(CC)S(=O)(=O)c1ccc2c(c1)cc(C(=O)NCCc1c[nH]c3ccc(OC)cc13)n2C,100
COCCN1CCC(N2CCCN(S(=O)(=O)c3ccc(C)cc3)CC2)C1=O (configuration not stated),108
CCOC(=O)c1ccc(N2N=C(C(F)(F)F)/C(=C/c3cc(Br)c(O)c(OC)c3)C2=O)cc1,106
CCn1c(SCC(=O)Nc2ccc3c(c2)OCO3)nnc1-c1cn(C)nc1-c1ccc(Cl)cc1,97
CCCCCCCNC(=O)C1CCN(c2ncc(-c3cccc(C)c3)cn2)CC1,96
O=c1/c(=C/c2cccc(Br)c2)sc2nnc(-c3ccccc3)n12,106
O=C1c2cccc([N+](=O)[O-])c2C(=O)N1C1C(=O)N(c2ccc(F)cc2)C1c1cccs1 (configuration not stated),110
CCC(Cl)C(=O)OC1CCC2(C)C(=CCC3C2CCC2(C)C(C(C)CCCC(C)C)CCC32)C1 (configuration not stated),126
CCOC(=O)C1CCN(c2nc(-c3ccccc3F)nc3ccccc23)CC1,112
